eIF4H FP inh: inhibitors of RNA binding by human eIF4H. Q15056. eIF4H fluorescence polarization binding assay. inhibition, % at 35 µM. 290,000 tested, 0.94% active;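 active = 50% or more with normal probe brightness, or confirmed in later tests; inconclusive = above 50% with abnormal brightness, or retests that disagree; inactive = below 50% or failed in later tests; about a fifth of its hits are not listed in these tables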;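 also: calls also rest on retests at 20 µM and on dose response follow-up; 0% = protein and probe with vehicle and 100% = probe without protein; strong numbers were not always called active; many hits fall short of the cut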
UUG fidelity: modulators of start codon recognition fidelity in yeast; AID 602363; 350,000 tested, 0.13% active; S. cerevisiae UUG-firefly luciferase reporter, luminescence/redox ratio; activity score, % at 18.7 µM;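 active = replicate mean at a twofold rise or more, about +100% in these data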;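 also: firefly luciferase made from a UUG start codon reports start codon fidelity; reporter light over untreated wells divided by growth signal over untreated wells; some hits fall short of that in this replicate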
Rce1 inhib: blocks yeast Ras-converting enzyme | 290,000 tested, 0.27% active | yeast membranes, quenched prenylated peptide cleavage fluorescence | calls only | Q03530;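 active = fall in fluorescence gain of 50% or more versus controls, with final raw signal at or below 3038400; inconclusive = same 50% fall but final raw signal above 3038400; inactive = fall in fluorescence gain under 50%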;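 also: plate controls were neutral control wells for no effect and wells lacking membranes for full effect; tested at 10 µM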
PABP FP inh: blocks human PABP binding to poly(A) RNA. P11940. fluorescence polarization. inhibition, % at 35 µM. 290,000 tested, 1% active;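 active = 50% or more with normal probe brightness, or confirmed in later tests; inconclusive = above 50% with abnormal brightness, or retests that disagree; inactive = below 50% or failed in later tests; about a fifth of its hits are not listed in these tables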;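 also: calls also rest on retests at 20 µM and on dose response follow-up; controls were probe without protein and protein plus probe with vehicle; some compounds called inactive have numbers as strong as hits; many hits fall short of the cut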
Target sequence (P11940 whole entry, looked up): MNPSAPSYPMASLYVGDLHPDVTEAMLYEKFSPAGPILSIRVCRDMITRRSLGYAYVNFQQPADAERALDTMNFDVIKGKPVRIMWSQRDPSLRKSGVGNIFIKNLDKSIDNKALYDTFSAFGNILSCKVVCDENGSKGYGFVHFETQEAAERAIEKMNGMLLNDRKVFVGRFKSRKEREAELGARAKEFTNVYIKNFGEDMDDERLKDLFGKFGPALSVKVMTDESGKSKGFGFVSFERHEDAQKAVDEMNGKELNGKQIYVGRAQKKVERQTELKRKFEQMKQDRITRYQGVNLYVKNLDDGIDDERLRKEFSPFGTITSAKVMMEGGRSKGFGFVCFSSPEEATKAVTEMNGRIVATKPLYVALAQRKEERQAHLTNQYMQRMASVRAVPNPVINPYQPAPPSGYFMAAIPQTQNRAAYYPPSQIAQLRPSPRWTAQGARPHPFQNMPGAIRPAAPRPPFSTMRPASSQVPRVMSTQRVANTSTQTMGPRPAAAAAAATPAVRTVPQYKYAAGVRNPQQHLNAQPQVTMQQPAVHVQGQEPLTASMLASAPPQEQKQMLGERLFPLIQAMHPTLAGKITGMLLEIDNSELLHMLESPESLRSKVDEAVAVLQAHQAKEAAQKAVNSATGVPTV
CSC inhib: cancer stem cell inhibition. cancer stem cell-like cells viability, luminescence. inhibition, % at 7.5 µM. 300,000 tested, 1.1% active. AID 2717;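 active = mean at 75% or more and at least half the replicates too; inconclusive = mean and replicates disagree; tested in HMLE shEcad cells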;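 also: 0% = median of negative and 100% = median of positive control wells; the first replicate is given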
MT1-MMP act inh: MT1-MMP (human) activation inhibition. P50281. HT1080 RFP-PRO-GFP cells, GFP/RFP ratio fluorescence, overnight; percent of plate control window, DMSO zero. GFP/RFP ratio change, % at 20 µM. 360,000 tested, 0.061% active. AID 651647;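 active = GFP/RFP ratio change of at least 30% with cell ATP level not reduced by more than half and red fluorescence within 50% of control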; also: strong numbers were not always called active
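Read-out: GFP/RFP fluorescence ratio; Test system: RFP-PRO-GFP reporter HT1080 cells; Compound dosing: single-point 20 µM compound, 1% DMSO; Times: overnight compound exposure at 37 °C.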
Env fusion inh: HIV envelope-mediated fusion inhibition | HeLa-JRFL Env/CEM21 cell fusion, luciferase | inhibition, % at 12.3 µM | 360,000 tested, 1.1% active | AID 651610;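 active = mean replicate inhibition score of at least 50 and every replicate individually at or above 50; inconclusive = only one of the two criteria met; inactive = mean below 50 and not all replicates reaching 50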;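 also: 0% = plate neutral controls and 100% = maraviroc near 300 nM; one replicate is shown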
MT1-MMP act inh RFP: second read-out of MT1-MMP act inh, no call of its own (marks repeat the call); RFP signal change, %; measured here: RFP expression control read;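 0 = vehicle wells; hits needed this value within 50% of zero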
* = called active by the depositor; i = inactive; u = inconclusive; x = no result given. No enrichment for hits. About 3% of those tested had a hit in this group.

SMILES	eIF4H FP inh	UUG fidelity	Rce1 inhib	PABP FP inh	CSC inhib	MT1-MMP act inh	MT1-MMP act inh RFP	Env fusion inh
COC1OCC(O)C(OC(=O)c2ccccc2)C1OC(=O)c1ccccc1 (stereo not drawn)	x	10	x	x	x	-3	-3	10
CCOc1cc(C=O)cc(N=Nc2cccc([N+](=O)[O-])c2)c1O	13	-2	i	14	4	7	-4	10
O=C(Nc1ccc(Cl)c(S(=O)(=O)N2CCOCC2)c1)c1ccc2c(c1)OCCO2	-10	x	i	-11	-19	-11	-25	14
CCOC(=O)c1c(S(=O)(=O)NCCc2ccc(OC)c(OC)c2)c(C)n(C)c1C	0	-6	i	-2	12	2	0	5
CN1C(=O)c2ccc(Oc3ccccc3)cc2C1=O	x	-2	i	x	-18	1	0	-7
O=C(NCc1ccc(Cl)cc1)C1CCN(S(=O)(=O)N2CCOCC2)CC1	5	x	i	5	-2	4	6	16
CN(C)/C=C(\C=O)c1cccc(Cl)c1	-3	x	i	0	9	0	1	7
CC(C)CN(CCCNC(=O)CN1C(=O)COc2ccc(S(=O)(=O)N3CCCCCC3)cc21)CC(C)C	1	-5	i	5	-1	-1	3	-1
CCCCc1cc(C(=O)Cc2ccccn2)c(O)cc1O	-13	-19	i	2	-8	-9	-9	5
CS(=O)(=O)Cc1ccc(C(=O)NC(c2ccccc2)c2ccccc2)cc1	-8	-7	i	2	x	-3	-2	-1
CC(C)OC(=O)CC12CN3CC(CC(=O)OC(C)C)(CN(C1)C(=O)c1ccccc1C3=O)C2=O	-5	-13	i	0	x	2	3	x
CCCOC(=O)C1=C(C)N(C)C(=O)NC1c1cc2c(cc1Br)OCO2 (stereo not drawn)	-4	-3	i	5	-1	-2	-5	10
Cc1ccc(CNC(=O)CSc2nc3ccccc3c(=O)n2CC2CCCO2)cc1 (stereo not drawn)	x	-6	x	x	-16	0	1	x
CCCCN1C(=S)SC(C)(C)C1/[N+]([O-])=C/c1cccnc1 (stereo not drawn)	-4	-21	i	4	-15	6	4	-6
CCOC(=O)CSc1nnc(CCc2nc3ccccc3[nH]2)n1C	-4	-29	i	-2	4	-3	-1	-8
CCCn1c(=O)c(C(=O)Nc2cccc(C)c2)c(O)c2ccccc21	-4	-10	i	-3	8	5	-6	0
CC(C)(C(=O)N[C@H](CO)c1ccccc1)C(=O)N[C@H](CO)c1ccccc1	-7	-10	i	8	5	4	5	-32
Clc1cccc(-c2nnc3n2CCCCC3)c1	2	x	i	-12	-1	0	-1	-3
COc1ccccc1OCCCOc1c(Cl)cc(C)cc1Cl	-8	-19	i	0	5	0	0	-2
CCC(c1nnnn1Cc1ccco1)N(Cc1ccccc1OC)Cc1cc2cc(C)ccc2[nH]c1=O (stereo not drawn)	-5	-9	i	-1	37	-26	-17	x

Some values from the entries so far:
Under PABP FP inh, CS(=O)(=O)Cc1ccc(C(=O)NC(c2ccccc2)c2ccccc2)cc1 reads 2
Under UUG fidelity, CCCOC(=O)C1=C(C)N(C)C(=O)NC1c1cc2c(cc1Br)OCO2 (stereo not drawn) reads -3
Under CSC inhib, Cc1ccc(CNC(=O)CSc2nc3ccccc3c(=O)n2CC2CCCO2)cc1 (stereo not drawn) reads -16
Under UUG fidelity, COC1OCC(O)C(OC(=O)c2ccccc2)C1OC(=O)c1ccccc1 (stereo not drawn) reads 10
Under PABP FP inh, COc1ccccc1OCCCOc1c(Cl)cc(C)cc1Cl reads 0
Under CSC inhib, CCCCN1C(=S)SC(C)(C)C1/[N+]([O-])=C/c1cccnc1 (stereo not drawn) reads -15
Under CSC inhib, CC(C)(C(=O)N[C@H](CO)c1ccccc1)C(=O)N[C@H](CO)c1ccccc1 reads 5

(listing goes on)
SMILES	eIF4H FP inh	UUG fidelity	Rce1 inhib	PABP FP inh	CSC inhib	MT1-MMP act inh	MT1-MMP act inh RFP	Env fusion inh
CC1(C)CC2CC(C)(CN2/C=N/c2sc3c(c2C#N)CC(C)(C)NC3(C)C)C1 (stereo not drawn)	1	16	i	-6	u	-5	-10	-8
CN(C)c1ccc(C(=O)N2CC(=O)N(CCc3ccccc3)C(=O)C2)cc1	10	-12	i	-4	-4	0	3	x
Cc1n[nH]c(=O)n1-c1ccc(Oc2ccccc2)cc1	4	-14	i	6	-2	-7	-3	8
COc1cc(NC(=O)COC(=O)c2cnccn2)c(C)cc1[N+](=O)[O-]	0	-31	i	8	-9	-2	1	-1
CNC(=O)c1nnc(Cc2ccc(Cl)cc2)o1	0	1	i	2	2	1	2	-11
COc1ccc(-n2c(SCC(=O)Nc3ccccc3)nnc2-c2ccc(NS(=O)(=O)c3ccc(C)cc3)cc2)cc1	-15	0	i	0	-6	11	1	-51
Cc1ccc(C2(c3ccccc3)NC(=O)N(CC(=O)NC3CCCCC3)C2=O)cc1C (stereo not drawn)	x	-3	x	x	x	1	-4	6
Cc1ccc(C)c(-c2cc(C(=O)N/N=C/c3cccnc3)c3ccccc3n2)c1	-10	-5	i	0	-3	3	1	-26
CCOC(=O)c1c[nH]c2ccc3ccccc3c2c1=O	-3	-6	i	-6	-3	2	-2	3
Cc1ccc(-n2c(COc3cccc(C)c3)n[nH]c2=S)cc1	6	x	i	5	-12	-1	-2	-2
CCN(CC)S(=O)(=O)c1cccc(-c2nnc(SCCCC(=O)c3ccc(F)cc3)o2)c1	0	8	i	-7	-3	1	-14	26
COCCN(CCOC)Cc1c(C)[nH]c2c(C)c(C)ccc2c1=O	-8	1	i	39	-3	2	1	x
CN(C)c1ccc(CNC(=O)CCS(=O)(=O)c2ccc3c(c2)n(C)c(=O)c(=O)n3C)cc1	35	-6	i	-4	3	-2	4	x
c1ccc(NC2=NCCN2CC2CCCC2)cc1	2	-8	i	-4	-7	1	-1	-2
CCN(CC)S(=O)(=O)c1ccc2[nH]cc(C(=O)NC3CC3)c(=O)c2c1	3	x	i	6	-13	4	0	9
COc1ccc(C(c2nnnn2-c2ccc(OC)cc2)N2CCN(C/C=C/c3ccccc3)CC2)cc1 (stereo not drawn)	x	2	x	x	x	-1	-7	-8
CCn1c(NCc2ccc(OC)cc2)nc2ccccc21	4	-2	i	10	-10	-4	1	-3
N#Cc1ccc(NC(=O)CSc2cn[nH]n2)cc1	-12	-17	x	-5	-17	0	1	-14
O=C(NN1C(=O)c2ccccc2C1=O)c1ccncc1	4	x	i	-10	-7	1	5	3
CC(=O)N1CCC2(CC1)CC(=O)c1cc(OCC(=O)N3CCCC3)ccc1O2	1	x	i	-2	-1	x	x	9

The final two records of the part above lead into the next.
SMILES	eIF4H FP inh	UUG fidelity	Rce1 inhib	PABP FP inh	CSC inhib	MT1-MMP act inh	MT1-MMP act inh RFP	Env fusion inh
O=C(NN1C(=O)c2ccccc2C1=O)c1ccncc1	4	x	i	-10	-7	1	5	3
CC(=O)N1CCC2(CC1)CC(=O)c1cc(OCC(=O)N3CCCC3)ccc1O2	1	x	i	-2	-1	x	x	9
O=C(CCC(=O)N/N=C/c1c[nH]c2ccccc12)NCc1ccccc1	7	x	i	-3	4	2	3	-23
O=C(Nc1nc2nc(-c3ccccc3)cc(-c3ccccc3)n2n1)c1ccco1	8	-22	i	6	-8	9	0	x
CCn1c(=O)cc(SCC(=O)Nc2ccc(OC)c(OC)c2)c2ccccc21	4	19	i	-7	6	8	-10	u
Cc1ccc(/C=N/NC(=O)c2ccccc2OCc2cccc(Br)c2)o1	-2	x	i	-5	15	-1	-12	10
Cc1ccc(CNC(=O)CCn2ccc3cc(S(=O)(=O)N4CCCC4)ccc32)cc1	-15	-3	i	3	0	2	2	-3
CCC(NC(=O)c1cccc(Cn2cc([N+](=O)[O-])cn2)c1)c1ccc(C(C)C)cc1 (stereo not drawn)	16	3	i	6	9	-17	-19	-9
O=C(NC1=NCCS1)c1cccc(NC(=O)c2ccco2)c1	0	-11	i	4	9	-4	-6	-35
COc1ccc(OC)c(S(=O)(=O)Nc2c(F)cccc2F)c1	1	-13	i	4	-15	-3	4	-93
O=C(CNS(=O)(=O)c1ccccc1)N1CCCC1	-4	x	i	-5	-6	-2	2	-15
CC1CN(c2cc(=O)n(-c3ccc(Cl)cc3)c(=O)[nH]2)CC(C)O1 (stereo not drawn)	5	-20	x	-7	x	3	5	18
O=c1[nH]c(-c2ccccc2Cl)nc2c1sc(=S)n2-c1ccccc1	-6	x	i	2	x	1	3	-2
C/C=C/COc1nc2c(c(=O)n(C)c(=O)n2C)n1C	8	-13	i	-2	-6	-4	-1	x
CCC(CO)n1c(SCc2cc(=O)oc3cc(C)ccc23)nc2ccccc2c1=O (stereo not drawn)	2	-4	i	6	10	-3	-4	-19
CC(=O)OC(C(=O)NC1CCCCC1)c1ccc(Cl)c(Cl)c1 (stereo not drawn)	-2	x	i	1	9	0	3	-6
COc1cc(/C=N/NC(=O)c2cccc(NC(=O)c3ccccc3Cl)c2)ccc1O	-5	x	i	-6	15	0	3	27
NC(=O)c1ccc(NC(=O)COC(=O)CCCc2c[nH]c3ccccc23)cc1	-4	x	i	-8	-6	4	5	14

4 entries from above, sorted by their value in MT1-MMP act inh RFP, low to high:
smiles	MT1-MMP act inh RFP
Cc1ccc(/C=N/NC(=O)c2ccccc2OCc2cccc(Br)c2)o1	-12
O=C(CNS(=O)(=O)c1ccccc1)N1CCCC1	2
O=C(CCC(=O)N/N=C/c1c[nH]c2ccccc12)NCc1ccccc1	3
NC(=O)c1ccc(NC(=O)COC(=O)CCCc2c[nH]c3ccccc23)cc1	5

Screening results (PubChem)
